Assay outcomes: PubChem BioAssay, several laboratories
Ecoli growth: blocks Escherichia coli growth; OD600, 23 h; active compounds read low; OD600 absorbance (concentration not given with the values); hit rate 0.21% among 330,000;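 active = OD600 absorbance below the run mean of sample wells minus 3.6 SD, in any replicate, cut at about 0.56 in these data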;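 also: stock transfer was 300 nL into about 60 µL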
FGF22 binding: FGF22 (human) thermal shift binding; recombinant FGF22 thermal shift, SYPRO orange fluorescence; percent of sucrose octasulfate shift, DMSO zero; hit rate 1.5% among 340,000; Q9HCT0; calls only at 9.99 µM;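 active = melting point raised past a set limit in the mean and every replicate; three in four hits are not shown here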
rRNA inh HTS: inhibits bacterial ribosomal RNA function over humanized ribosomes; E. coli WT GFP vs humanized-ribosome RFP mutants, fluorescence, 24 h; active compounds read low; DMSO median 0, no signal -100; GFP signal change (wild-type ribosome), % (no concentration beside the values); hit rate 1.6% among 350,000;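 active = significant combined selectivity score with lowered wild-type GFP, culture density cut under 30%, mutant RFP and density less affected; inactive = any of these conditions unmet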; also: one replicate is shown; some compounds called inactive have numbers as strong as hits
UCH37 DUB inh: human UCH37 deubiquitinating enzyme inhibition; purified proteasome/UCH37, Ub-AMC cleavage fluorescence; inhibition, % (no concentration beside the values); hit rate 0.33% among 330,000; AID 588478;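 active = mean of two replicates above 20%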;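 also: 0% = compound-free wells with enzyme and 100% = wells lacking proteasome; stock transfer was 100 nL into about 20 µL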
Target sequence (Q9Y5K5 whole entry, looked up): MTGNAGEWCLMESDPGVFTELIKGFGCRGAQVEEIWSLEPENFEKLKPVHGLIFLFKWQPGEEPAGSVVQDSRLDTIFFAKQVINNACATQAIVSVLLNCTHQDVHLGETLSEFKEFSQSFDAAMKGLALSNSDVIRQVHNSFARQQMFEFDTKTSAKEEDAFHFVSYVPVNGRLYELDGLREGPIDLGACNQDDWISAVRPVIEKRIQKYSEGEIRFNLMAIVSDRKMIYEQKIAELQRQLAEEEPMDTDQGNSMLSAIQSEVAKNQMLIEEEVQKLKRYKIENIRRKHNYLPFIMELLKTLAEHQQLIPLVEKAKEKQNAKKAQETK
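system = Proteasome-associated human UCH37 deubiquitinase | amount = 0.15 nM proteasome as dispensed | medium = pH 7.4 Tris-HCl (50 mM) with ovalbumin, ATP-MgCl2, DTT | incubation = 30 min preincubation with enzyme, 25 min cleavage at room temperature | detection = AMC fluorescence 355/460 nm | read-out basis = percent inhibition | controls = no-proteasome and no-compound wells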
B2AR ag: human beta-2 adrenergic receptor agonism by FAP; P07550; response, % (concentration not given with the values); Am2.2-beta2AR cells, FAP receptor internalization, flow cytometry; reference of the scale not given here; AID 504454; hit rate 0.43% among 340,000;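 active = response above a set limit, near 3 SD of response in nonfluorescent compounds, cut at about 42% in these data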;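 also: stock transfer was 100 nL into about 11 µL; a reference agonist was the positive control; negative values mostly stem from fluorescent compounds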
Target sequence (P07550 whole entry, looked up): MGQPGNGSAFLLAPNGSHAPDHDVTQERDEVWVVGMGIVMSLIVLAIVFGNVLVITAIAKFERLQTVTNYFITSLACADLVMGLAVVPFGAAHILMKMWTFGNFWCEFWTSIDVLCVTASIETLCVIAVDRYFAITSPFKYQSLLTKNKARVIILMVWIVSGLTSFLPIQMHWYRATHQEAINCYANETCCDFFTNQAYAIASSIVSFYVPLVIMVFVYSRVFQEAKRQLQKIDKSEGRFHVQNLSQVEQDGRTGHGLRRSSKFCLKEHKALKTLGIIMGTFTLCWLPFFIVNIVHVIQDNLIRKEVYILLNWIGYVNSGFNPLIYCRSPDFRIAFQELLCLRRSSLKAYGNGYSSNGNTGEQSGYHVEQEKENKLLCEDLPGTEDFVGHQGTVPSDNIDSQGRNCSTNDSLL
ALR H2O2 inh: human ALR oxidase inhibition via reduced H2O2. AID 485317. purified ALR, DTT oxidation, H2O2 HRP-luminol luminescence. hit rate 3.8% among 290,000. inhibition, % (concentration not given with the values). P55789;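 active = mean and each replicate at 75% or more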;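 also: stock transfer was 7.5 nL into about 7.5 µL; 0% = neutral wells and 100% = wells with inactivated enzyme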
Target sequence (P55789 whole entry, looked up): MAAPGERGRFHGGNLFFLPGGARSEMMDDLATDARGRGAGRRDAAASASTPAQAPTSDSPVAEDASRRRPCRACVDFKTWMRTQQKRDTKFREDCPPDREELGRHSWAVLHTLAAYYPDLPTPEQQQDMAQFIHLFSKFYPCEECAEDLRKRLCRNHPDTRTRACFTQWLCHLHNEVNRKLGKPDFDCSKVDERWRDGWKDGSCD
HNF4A DNA FP: change in binding of human HNF4 alpha to DNA | HNF4a-FITC DNA binding, fluorescence polarization, 1 h | activity change, % at 10 µM | hit rate 0.3% among 360,000; in the data active = activity change above about 30%, passing the limit was not always enough;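 also: controls were the assay level and a saturating level of protein; the project sought stronger binding though the title names inhibitors; some compounds called inactive have numbers as strong as hits; positive values seem to mean higher polarization but the record does not say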
rRNA inh HTS OD600: second read-out of rRNA inh HTS, no call of its own (marks repeat the call); OD600 change, %; measured here: OD600 growth;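 optical density of the mix in the first replicate; 0 = DMSO median and -100 = no signal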
rRNA inh HTS RFP: recorded beside rRNA inh HTS, whose call it bears; RFP signal change, %; measured here: RFP humanized mutant strains;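 first replicate; 0 = DMSO median and -100 = no signal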
Active calls of the source: *; i = inactive; / = not tested or not shown.

Every second line gives: Ecoli growth	FGF22 binding	rRNA inh HTS	rRNA inh HTS OD600	rRNA inh HTS RFP	UCH37 DUB inh	B2AR ag	ALR H2O2 inh	HNF4A DNA FP
- NC(N)=NS(=O)(=O)c1ccc(N/C=C\C(=O)c2ccncc2)cc1
→ 0.6	i	9	6	-2.4	7.9	4	0	2.2
- CN(C)CCNC(=O)c1ccc(CS(=O)(=O)c2ccc(Br)cc2)o1
→ 0.75	i	10	19	-3.2	2.3	2	-20	3.2
- Cc1ccc(-n2nc3c(=O)n(CC(=O)NCc4ccccn4)nc(C)c3c2C)cc1
→ 0.7	i	5	2	-0.9	1.7	-3	4	3.4
- CCOC(=O)Cc1csc(NC(=O)CCCc2ccccc2)n1
→ /	i	-1	-1	-3.9	/	4	/	1.8
- COc1cc(C(=O)NCCCN2CCCC2=O)cc(OC)c1OC
→ 0.65	i	16	5	-3.2	7.4	6	-16	-0.1
- COc1ccc(CCNC(=O)C2Cc3ccccc3C(=O)O2)cc1 (stereo not drawn)
→ 0.69	i	8	3	3.8	2.4	3	-27	-0.8
- CC1C(=O)N(Cc2cn(CCC3OCCCO3)nn2)CCS(=O)(=O)N1Cc1ccc(-c2cccc(N(C)C)c2)cc1 (stereo not drawn)
→ /	i	2	-3	2.0	/	/	/	-5.4
- CCOC(=O)C1(C)NC(c2ccc(OC)c(OC)c2)C2C(=O)N(CC)C(=O)C21 (stereo not drawn)
→ 0.7	/	/	/	/	-0.1	-1	-3	1.7
- Cc1cc(C)c2c(N)c(C(=O)N3CCc4ccccc4C3)sc2n1
→ 0.68	i	11	11	-0.2	-198	-22	5	0.6
- COc1ccc(COCC(O)CN2CCOCC2)cc1OC (stereo not drawn)
→ 0.76	/	/	/	/	5.8	-2	-3	-1.3
- Cc1ccc(-n2nc(-c3ccco3)cc2C(=O)NCc2cccnc2)cc1
→ 0.68	/	/	/	/	4.5	5	1	1.4
- CC(C)CN1CCC(=O)N([C@H](CSc2ccc(Br)cc2)Cc2ccccc2)CC1
→ /	i	-14	-58	1.5	1.7	1	8	3.4
- Cc1nc2c(c(=O)n1CCC1=CCCCC1)c1nc3ccccc3nc1n2/N=C/c1ccccc1
→ /	/	/	/	/	/	6	-6	7.8
- CN(CC(=O)NCc1ccco1)S(=O)(=O)c1ccc2c(c1)c(=O)n(C)c(=O)n2C
→ 0.69	i	12	12	-3.6	-0.9	-9	-1	8.0
- CCOC(=O)C1=CCN(S(=O)(=O)c2ccccc2C)C1c1ccc(F)cc1 (stereo not drawn)
→ /	i	-26	-59	-6.3	/	/	/	1.6
- Cc1sc2nc(CN3CCCC3)nc(Cl)c2c1C
→ 0.67	/	/	/	/	-1.5	3	22	0.8
- O=C(CSc1nc2ccccc2[nH]1)Nc1nc(-c2ccccc2)c(-c2ccccc2)o1
→ 0.59	/	/	/	/	-35	2	33	1.8
- COC(=O)c1ccc(CNC(=O)C(NC(=O)c2ccco2)C(C)C)cc1 (stereo not drawn)
→ 0.71	i	5	8	0.1	-1.1	15	-12	1.2
- COc1cc(OC)cc(C(=O)NCC(=O)N2CC=C(c3ccccc3)CC2)c1
→ 0.68	i	-9	-9	4.6	1.1	6	/	-0.6
- CC(NC(=O)c1ccc(F)cc1)C(c1cccs1)N1CCN(C)CC1 (stereo not drawn)
→ 0.68	/	/	/	/	4.0	-3	3	0.0
- Clc1cc(Br)ccc1OCCOCCOc1cccc2cccnc12
→ 0.72	/	/	/	/	0.7	15	-13	-0.3
- CCOC(=O)c1c(C)[nH]c(C)c1S(=O)(=O)N(C)CC(=O)Nc1cccc(C)c1
→ 0.7	i	-10	-8	3.3	0.8	3	-2	3.3
- CN1CCN(c2nc(-c3ccc(Cl)cc3Cl)nc3ccccc23)CC1
→ 0.66	i	-33	-34	-14	7.1	-13	-2	-0.1
- Cc1ccc(-c2nc3cnccn3c2Nc2c(C)cccc2C)o1
→ 0.72	i	8	4	4.0	-260	4	98*	-0.7
- Cc1ccc2cc(-c3noc(C4CCCCC4)n3)c(=O)[nH]c2c1
→ 0.73	i	-1	8	19	-16	3	-30	5.5
- CC(Sc1nnc(COc2ccc([N+](=O)[O-])cc2)n1C)C(=O)O (stereo not drawn)
→ 0.7	i	6	9	-3.3	2.6	-4	21	-1.2
- COc1ccc(CCC(=O)Nc2ccc(Cl)c(S(=O)(=O)N3CCOCC3)c2)cc1OC
→ 0.71	i	2	-6	4.8	3.4	5	/	-1.8
- CC1(C)CC2(CC(c3ccccc3)Oc3cc(O)ccc32)NC(=S)N1 (stereo not drawn)
→ 0.66	i	-54	-80	-18	5.4	2	/	0.7
- Cc1cc(C)n(-c2ccc(C(=O)Nc3ccccn3)cc2)n1
→ 0.64	/	/	/	/	5.0	-6	1	3.1
- COc1cc(NC(=O)CN2CCN(C(=O)C3CCCO3)CC2)c(OC)cc1Cl (stereo not drawn)
→ 0.67	i	6	5	-2.0	1.5	5	-2	2.5

Ordered by value in rRNA inh HTS (falling): 3 of the compounds above
Every second line gives: Ecoli growth	FGF22 binding	rRNA inh HTS	rRNA inh HTS OD600	rRNA inh HTS RFP	UCH37 DUB inh	B2AR ag	ALR H2O2 inh	HNF4A DNA FP
- COc1cc(C(=O)NCCCN2CCCC2=O)cc(OC)c1OC
→ 0.65	i	16	5	-3.2	7.4	6	-16	-0.1
- COc1ccc(CCNC(=O)C2Cc3ccccc3C(=O)O2)cc1 (stereo not drawn)
→ 0.69	i	8	3	3.8	2.4	3	-27	-0.8
- CC1(C)CC2(CC(c3ccccc3)Oc3cc(O)ccc32)NC(=S)N1 (stereo not drawn)
→ 0.66	i	-54	-80	-18	5.4	2	/	0.7

(more compounds)
Every second line gives: Ecoli growth	FGF22 binding	rRNA inh HTS	rRNA inh HTS OD600	rRNA inh HTS RFP	UCH37 DUB inh	B2AR ag	ALR H2O2 inh	HNF4A DNA FP
- CC(Oc1ccccc1Br)C(=O)N1CCc2ccccc21 (stereo not drawn)
→ 0.68	/	/	/	/	0.5	1	3	-1.7
- CN(C)CCOc1ccccc1-c1ccccc1
→ 0.66	/	/	/	/	1.9	0	/	-0.2
- O=C(/C=C/c1ccc(Cl)c([N+](=O)[O-])c1)c1ccc(O)cc1
→ 0.68	i	-26*	-2.7*	9.1*	2.2	8	10	1.1
- COc1ccc(-c2[nH]ncc2CN2CCCC2c2nonc2C)c(F)c1 (stereo not drawn)
→ 0.71	i	-11	-4	4.3	4.0	10	5	4.7
- CC(C)(C)NC(=O)COC(=O)c1cncc(Br)c1
→ 0.73	/	/	/	/	3.3	-4	-1	-2.3
- O=C(c1ccccc1[N+](=O)[O-])N1CCc2ccccc2C1
→ 0.66	/	/	/	/	4.9	4	-3	-0.3
- O=C(OCc1cc2ccccc2[nH]c1=O)c1cccc([N+](=O)[O-])c1
→ 0.72	i	6	11	0.7	5.1	-4	/	1.3
- CC(C)CCNC(=O)C1CCN(S(=O)(=O)c2ccc3c(c2)CC(C)N3C(=O)C2CC2)CC1 (stereo not drawn)
→ 0.72	i	-13	-10	-2.1	3.4	-13	-3	-3.0
- Cc1nn(C)c(C(=O)Nc2ccc3c(c2)OCO3)c1[N+](=O)[O-]
→ 0.71	i	10	17	2.6	3.5	-12	-24	-3.2
- COc1ccc(OCCCC(=O)OCC(=O)N2CCN(S(=O)(=O)c3ccc(C)cc3C)CC2)cc1
→ 0.65	i	/	/	/	1.0	-1	/	5.4
- COc1cccc(CC(=O)Nc2ccc(S(=O)(=O)N3CCOCC3)cc2)c1
→ 0.64	/	3	7	0.2	0.4	13	-24	2.1
- CNC(=S)N1CCc2ccccc2C1
→ 0.64	/	/	/	/	1.2	4	-7	-1.4
- COc1cccc(SCc2noc(C(=O)NCc3ccccc3)c2C(=O)NCc2ccccc2)c1
→ 0.69	i	12	17	-3.8	-1.8	17	1	0.2
- Cc1ccc(NC(=O)C2(c3cccs3)CCOCC2)cc1C
→ 0.69	i	-6	-5	-6.6	0.1	3	8	2.5
- CC(C)(CCc1ccccn1)C(=O)CCCc1ccccn1
→ 0.68	i	-4	-2	-0.6	-0.7	-12	/	1.0
- CCSc1nnc(-c2cccs2)o1
→ 0.68	/	/	/	/	3.7	-2	1	1.7
- CN(C)c1ccc(-c2noc(C3CCN(S(=O)(=O)c4ccc(C(=O)O)cc4)CC3)n2)cc1
→ 0.67	/	/	/	/	1.2	2	38	1.4
- CCCC(=O)Nc1nc(CC(=O)OCC)cs1
→ 0.69	i	8	0	-6.3	1.0	-2	-15	1.0
- CCOC(=O)c1ccccc1NC(=O)c1nc2nccc(C)n2n1
→ 0.69	/	/	/	/	0.6	-5	-18	1.4
- Cc1ccc(NC(=O)CC2OC(=O)c3ccccc32)cc1S(=O)(=O)N1CCCCCC1 (stereo not drawn)
→ 0.67	i	/	/	/	1.5	1	-10	6.4
- O=C(Cc1cccc2ccccc12)N/N=C1\CCCc2ccccc21
→ /	/	/	/	/	/	15	-8	3.2
- CNc1cc(CSC)nc(SCc2ccc(Cl)cc2Cl)n1
→ 0.69	/	-24	-6	11	-0.1	-13	-13	-1.2
- CCCc1ncc(C(O)(c2ccccc2)c2ccccc2)n1C
→ 0.66	i	10	6	2.9	4.5	0	-2	-1.5
- Cc1nn(-c2ccccc2)nc1C(=O)Nc1ccc2c(c1)OCCO2
→ 0.69	i	-9	-37	1.3	2.9	1	-3	-0.4
- CC(C)CC(CO)N1CCN(C(=O)c2ccc(Cl)cc2)CCC1=O (stereo not drawn)
→ 0.7	i	4	8	4.8	5.1	8	-15	-2.0
- O=C(O)CNS(=O)(=O)c1cccc(Cl)c1
→ 0.72	i	7	-7	-2.2	0.9	1	6	-3.4
- CCOC(=O)Cn1ncc2c3ccccc3n(CC(=O)OCC)c2c1=O
→ 0.7	i	7	21	1.6	-3.5	-4	-6	-2.1
- O=C(CSc1n[nH]c(-c2ccccc2F)n1)NCC(=O)Nc1ccc(F)c(F)c1F
→ 0.65	i	-4	-6	-2.4	1.6	-1	24	1.7
- CCCn1c(SCc2ccc(C(=O)OC)o2)nc2ccccc2c1=O
→ 0.67	i	5	-33	-4.4	2.0	1	/	4.8
- CS(=O)(=O)c1ccc(Nc2nc(C(N)Cc3ccc(C(F)(F)F)cc3)cs2)cc1 (stereo not drawn)
→ /	i	-2	0	4.7	/	/	/	0.6
- Cc1cc(OCC(=O)N(Cc2ccco2)C2CCS(=O)(=O)C2)cc(C)c1Cl (stereo not drawn)
→ 0.63	i	-19	-44	0.4	2.5	-9	/	-0.3
- CSc1ccccc1NC(=O)CCn1c(=O)sc2ccccc21
→ 0.67	/	/	/	/	2.2	-7	1	3.0
- COc1ccccc1N1CCN(C(CNC(=O)c2ccco2)c2cccnc2)CC1 (stereo not drawn)
→ 0.76	i	1	9	-0.9	1.6	-11	40	1.9
- CCOc1ccc(NC(=O)CN(C)C(=O)c2ccc(C3SCCS3)cc2)cc1OCC
→ /	i	8	7	0.0	/	-4	-4	-1.0
- COc1ccc(/C=N/NC(=O)Cc2cccs2)cc1
→ /	i	0	-1	2.6	/	0	-3	0.3
- O=C(Nc1ccc(-c2cn3ccccc3n2)cc1)c1ccco1
→ 0.65	i	-9	2	-4.1	6.0	-18	/	0.1
- CSc1nc2ccccc2n1Cc1c(Cl)cccc1Cl
→ 0.69	/	/	/	/	0.8	7	-2	-1.8
- COC(=O)c1cc(Cl)c(NC(=O)c2cc(OC)c(OC)c(OC)c2)cc1OC
→ 0.69	/	/	/	/	-6.2	-2	1	-1.4
- Nc1c(C(=O)NCC2CCCO2)c2nc3ccccc3nc2n1/N=C/c1ccncc1 (stereo not drawn)
→ /	i	4	-4	0.1	/	19	/	-0.8
- COc1ccc(CN(C)S(=O)(=O)c2nnc(NC(=O)c3cccc(F)c3)s2)cc1
→ 0.65	i	-5	-28	-4.3	1.2	19	-6	-2.6

Some of the compounds tested, so the mix of outcomes need not match the whole.
